Bioassay records: PubChem BioAssay, National Center for Advancing Translational Sciences (NCATS)
2A firefly – Primary qHTS Assay for Foot and Mouth Disease Virus Antivirals against NCGC Sytravon and CBC Compound Libraries: Firefly Luciferase Signal; HEK cells with a luciferase reporter of 2A StopGo recoding; Potency, µM (highest dose often 57.5 µM), without a hit: top-dose signal change, negative = less light; hit rate 0.23% among 120,000; AID 1745856, 2022; active = well fitted falling curve with a large enough effect; inconclusive = small, poorly fitted or top-dose-only effect; inactive = no such curve, though single readings can be large or run the other way; further: nearly all actives have a fitted effect of over 60% in size; overnight with compound
2A Renilla – Primary qHTS Assay for Foot and Mouth Disease Virus Antivirals against NCGC Sytravon and CBC Compound Libraries: Renilla Luciferase Signal. HEK cells with a luciferase reporter of 2A StopGo recoding. Potency, µM (top dose mostly 57.5 µM), without a hit: top-dose signal change, negative = less light. hit rate 0.32% among 120,000. AID 1745857, 2022; active means well fitted falling curve with a large enough effect; inconclusive means small, poorly fitted or top-dose-only effect; inactive means no such curve, though single readings can be large or run the other way; further: nearly all actives have a fitted effect of over 55% in size; overnight with compound
Numbers without * were called inactive; ? = inconclusive; [ ] = remark or other dose. On the % scale 0 is the no-effect control and ±100 the full control effect; potency means the concentration at half of the fitted maximal effect.

SMILES	2A firefly	2A Renilla
COc1ccc(C2C(C(=O)Nc3ccccc3)=C(C)Nc3nc(-c4ccccc4Cl)nn32)cc1OC (stereo not given)	4%	21%
C=CCC1(O)CC(C)N(C)CC1C (stereo not given)	0%	-4%
CC(C)(C)C1CCc2nc(SCC(N)=O)c(C#N)c(C(F)(F)F)c2C1 (stereo not given)	6%	1%
O=C(CC1N=C2c3ccccc3N=C(SCc3ccccc3Cl)N2C1=O)NCCc1ccccc1 (stereo not given)	9%	47%[activator]
COCCn1c(Br)nc2c1c(=O)[nH]c(=O)n2C	0%	-11%
O=C(NCc1ccc(F)cc1)c1ccc2c(c1)nc1n2CCCCC1	64%[activator]	4%
COc1ccc(-n2ccn(CC(=O)Nc3cccc(F)c3)c2=O)cc1	-3%	-4%
O=C(Nc1ccccc1C(=O)N1CCC(Cc2ccccc2)CC1)c1ccco1	-2%	11%
CC(C)Oc1cccc(-c2noc(-c3ccc(S(=O)(=O)NC4CC4)o3)n2)c1	10%	66%[activator]
Cc1ccccc1-c1nc(-c2ccc(Br)o2)no1	0%	-3%
Cc1ccc(C(=O)NNC(=S)Nc2ccccc2)cc1	?	19%
CCCSc1nc2sc3c(c2c(=O)n1Cc1ccccc1)CC(C)(CC)OC3 (stereo not given)	18%	-7%
CCC1CN(C(=O)N2CCC(C(=O)NCCc3ccccc3Cl)CC2)c2cc(C)ccc2O1 (stereo not given)	?	?
CCCNC(=O)C(C)SCc1coc(-c2ccc(Cl)cc2)n1 (stereo not given)	?	?
O=C(CSc1cccc2cccc(Cl)c12)OCc1cc(Cl)c2c(c1)OCCCO2	12%	1%
CN(C)CCNc1nc2c(c(=O)n(C)c(=O)n2C)n1Cc1ccc(Cl)cc1	2%	-16%
COc1cc(C#N)ccc1OC(C)C(=O)c1ccccc1 (stereo not given)	14%	16%
CCOC(=O)c1ccc(NC(=O)c2csc3c2CCCC3)cc1	103%[activator]	-3%
CCc1cccc(C)c1Nc1c(-c2ccsc2)nc2ncccn12	-18%	-20%
Cc1ccc(Cl)cc1NC(=O)C(C)n1nc(-c2ccccc2)ccc1=O (stereo not given)	-10%	10%
CCc1ccc2oc(C(=O)N3CCC(Cc4ccccc4)CC3)cc(=O)c2c1	-6%	32%[activator]
O=C(CCc1ccccc1)Nc1ccc(-c2nc(-c3ccccc3)co2)cc1	108%[activator]	-5%
CCOc1ccc(C(=O)NCc2nc3cccnc3n2Cc2cccc(OC)c2)cc1	-17%	1%
O=C(O)c1nn(CCOc2ccccc2F)c(=O)c2ccccc12	115%[activator]	25%
CCCCN(CCCNC(=O)c1ccc(Sc2ccc(Cl)cc2)c(NC(C)=O)c1)c1ccccc1	-14%	-3%

(next part)
SMILES	2A firefly	2A Renilla
O=C(NCC1COc2ccccc2O1)c1nn(Cc2ccccc2)c(=O)c2ccccc12 (stereo not given)	-2%	18%
CCOc1ccc2c(c1)c(=O)c(C(=O)c1ccc(CC)cc1)cn2CC(=O)Nc1ccc2c(c1)OCCO2	?	-8%
CC1CCN(S(=O)(=O)c2nnc(NC(=O)c3ccc(C(C)C)cc3)s2)CC1	8%	1%
Cn1c(=O)n(C)c2cc(NC(=O)CN3C(=O)COc4ccc(C(C)(C)C)cc43)ccc21	21%	17%
CCOc1ccc(NC(=O)Cn2c(=O)c(CNc3ccc(OC)cc3)cc3ccc(OC)cc32)cc1	-4%	-5%
Cc1ccc(Sc2ccc(N3CCCC(C(=O)Nc4ccc(F)c(Cl)c4)C3)nn2)cc1 (stereo not given)	-10%	-2%
COc1cccc(CCNC(=O)c2c(O)nc3cc(C)ccn3c2=O)c1	-8%	-7%
COc1ccc(Nc2nc(-c3ccc(CN(C)C(C)=O)cc3)cs2)cc1	?	?
N#Cc1c(SCCN2CCOCC2)nc(N2CCCC2)c2c1CCCC2	-25%	9%
CCCNc1c(NC(=O)c2ccc(Br)o2)c(=O)oc2ccccc12	13%	24%
COc1ccc(CNC(=O)C(=O)NCC(c2ccco2)S(=O)(=O)c2cccs2)cc1 (stereo not given)	?	-15%
Cc1cccc(C(=O)N2CCCCC2CCN2CCCCC2)c1 (stereo not given)	-18%	-11%
CCOc1ccc(NC(=O)C(Sc2ccccc2)c2ccccc2)cc1 (stereo not given)	0%	28%
O=C(/C(=C/c1ccccc1F)c1nc2ccccc2o1)c1ccccc1	-26%	?
CCOC(=O)c1c(C)n(-c2ccccc2)c2ccc(OC(=O)c3cc(OC)cc(OC)c3)cc12	-8%	-5%
Cc1ccc2c(=O)cc(CSc3ncn[nH]3)[nH]c2c1C	-4%	3%
FC(F)Sc1nc2ccccc2s1	3%	10%
CCOC(=O)c1nc2ccccc2nc1N1CCN(c2ccccc2)CC1	-8%	-5%
COc1ccccc1NC(=O)NCCCN1CCN(c2ccc(F)cc2)CC1	?	-17%
COc1ccc(-n2cc(C(=O)NC(C)c3ccccc3)c3ccccc3c2=O)cc1 (stereo not given)	-1%	6%
COC(=O)COc1ccc2c(-c3ccccc3)cc(=O)oc2c1C	3%	-4%
Cc1ccccc1CNC(=O)C1CCN(c2nnc(-n3c(C)ccc3C)s2)CC1	59%[activator]	-6%
N#Cc1nc(C2CC2)oc1N1CCN(C(=O)NC2CCCCCCC2)CC1	29%	-1%
C=CCOc1nc2c(c(=O)n(C)c(=O)n2C)n1Cc1cccc(Br)c1	?	?
COc1ccc(CCn2c(SCC(C)C)nc3c2c(=O)n(C)c(=O)n3C)cc1	-6%	-2%

One compound at a time (already shown). Screens in order: 2A firefly	2A Renilla
COc1ccc(CCn2c(SCC(C)C)nc3c2c(=O)n(C)c(=O)n3C)cc1 is listed as -6%	-2%
CCOc1ccc(NC(=O)Cn2c(=O)c(CNc3ccc(OC)cc3)cc3ccc(OC)cc32)cc1 is listed as -4%	-5%
Cc1ccc2c(=O)cc(CSc3ncn[nH]3)[nH]c2c1C is listed as -4%	3%

Continuation.
SMILES	2A firefly	2A Renilla
Fc1cccc(-c2nc(COc3ccccc3Br)co2)c1	180%[activator]	10%
Cc1ccccc1C(=O)N1CCCCC1CO (stereo not given)	-6%	5%
COCCn1c(C(=O)NCc2ccc(OC)cc2)nc2ccccc2c1=O	4%	-2%
CCOC(=O)c1nn2c(C(F)(F)F)cc(-c3ccc(C)cc3)nc2c1Cl	-19%	-16%
Cc1ccc(NC(=O)Cn2cnnc2C#N)cc1C	5%	-1%
Cc1oc2cc(OS(C)(=O)=O)ccc2c(=O)c1-c1ccc(Cl)cc1	?	?
Cn1nc(C(=O)NC23CC4CC(CC(C4)C2)C3)c2ccccc2c1=O	9%	12%
CC(C)(C)c1ccc(C(=O)OCc2c(Cl)cccc2Cl)cc1	0%	-8%
CC(C)(C)NC(=O)c1cc2cc(Br)ccc2oc1=O	5%	0%
COCCNC(=O)CSc1cc(C)c2cc(C)cc(C)c2n1	?	?
Cc1cccnc1NC(=O)CCc1ncc(-c2ccccc2)o1	11%	47%[activator]
CC(Nc1oc(COc2ccccc2Cl)nc1C#N)c1ccccc1 (stereo not given)	3%	27%
CCOc1ccccc1CN(CCc1ccc2c(c1)OCO2)Cc1cccc(OC)c1OC	-26%	-22%
COc1cccc(/C=C/c2nc3ccccc3s2)c1OC(C)C	60%[activator]	21%
O=C(NCCc1csc(-c2cccc(F)c2)n1)C(=O)Nc1cc(F)ccc1F	-12%	-8%
Cc1ccc2cccc(NC(=O)c3cccc4c(Br)cccc34)c2n1	-10%	-5%
NNC(=O)c1ccncc1	-6%[11.5 µM]	-7%
COC(=O)c1ccc(NC(=O)Nc2nnc(N(C)C3CCCCC3)s2)cc1	-11%	-2%
O=C(Cn1nc(C(F)(F)F)c2c1CCCC2)Nc1ccc(Cl)cc1	-15%	5%
COc1ccc(NC(=O)CN2CCN(Cc3ccccc3)S2(=O)=O)c(OC)c1	-8%	8%
CCCn1c(C)cc(C(=O)COC(=O)Cn2cnc3c2c(=O)n(C)c(=O)n3C)c1C	6%	-13%
CCOC(=O)Cc1ccc(NC(=O)N2CC(CC)Oc3ccccc32)cc1 (stereo not given)	-3%	15%
CCOC(=O)c1ccccc1Nc1cc(C)nc2nc(-c3ccco3)nn12	77%[activator]	45%[activator]
Cc1ccc2c(c1)-c1onc(C(=O)N3CCN(c4cccc(C)c4C)CC3)c1CO2	-5%	-2%
COC(=O)c1ccc(Cl)cc1NC(=O)N(Cc1ccc(OC)cc1)C1CCN(C(C)=O)CC1	-11%	17%

Arranged by molar mass (rising): some entries from above
SMILES	2A firefly	2A Renilla
Cc1ccccc1C(=O)N1CCCCC1CO (stereo not given)	-6%	5%
COCCNC(=O)CSc1cc(C)c2cc(C)cc(C)c2n1	?	?
CC(C)(C)NC(=O)c1cc2cc(Br)ccc2oc1=O	5%	0%
CC(C)(C)c1ccc(C(=O)OCc2c(Cl)cccc2Cl)cc1	0%	-8%
CCOC(=O)Cc1ccc(NC(=O)N2CC(CC)Oc3ccccc32)cc1 (stereo not given)	-3%	15%
CCOc1ccccc1CN(CCc1ccc2c(c1)OCO2)Cc1cccc(OC)c1OC	-26%	-22%

(list continues)
SMILES	2A firefly	2A Renilla
CC(=O)c1c(C)[nH]c(C(=O)C(C)Sc2ccccc2Br)c1C (stereo not given)	25µM*	0%
O=C(NCc1ccccc1)c1cnc2sc(N3CCCC3)nn2c1=O	-7%	2%
COc1ccc(Cl)cc1NC(=O)Cn1c(=O)n(Cc2nc(C)no2)c(=O)c2ccccc21	-3%	-8%
CC1Cc2cc(S(=O)(=O)CCC(=O)Nc3ccc(Cl)cc3F)ccc2N1C(=O)C1CC1 (stereo not given)	?	?
O=C(Nc1cccc(C(F)(F)F)c1)c1ccc2c(c1)nnn2C1CCCC1	4%	?
Cc1ccc(Cl)cc1NC(=O)c1cc(-c2ccc3c(c2)OCCO3)on1	213%[activator]	-3%
Cc1c(O)ccc2c(CN3CCCCCC3)cc(=O)oc12	28%	-10%
CCOc1ccc(-c2cc3nc(C4CCN(C(=O)OC(C)(C)C)CC4)c(C(=O)Nc4cccc(C(F)(F)F)c4)cn3n2)cc1	-16%	-13%
Cc1ccc(NC(=O)Nc2c(N3CCCC3)c3ccccc3oc2=O)cc1F	4%	0%
COc1cccc2sc(NC(=O)CCn3c(=O)oc4ccccc43)nc12	0%	11%
O=C(Cc1n[nH]c(=O)c2ccccc12)Nc1cccc2ccccc12	1%	-7%
Cc1cc(NCc2ccccn2)n2ncc(-c3ccc(F)cc3)c2n1	246%[activator]	10%
Cc1c(C(=O)OCC2CCCCC2)[nH]c2c1C(=O)CC(c1ccc(Cl)cc1)C2 (stereo not given)	-18%	-5%
Cn1c(=O)c2c(n3c4ccccc4nc13)NC(=O)CC2c1cccc(Cl)c1 (stereo not given)	-10%	16%
COc1cc2c(cc1OC)C(COc1ccc3c(C)cc(=O)oc3c1)N(C(=O)CC(C)C)CC2 (stereo not given)	-20%	-10%
CNC(=O)c1cccc(NC(=O)CC2C=CCC2)c1 (stereo not given)	0%	0%
Cc1ccc(F)cc1NC(=O)CCc1c(C)nn(-c2ccc(N3CCCCC3)nn2)c1C	47%[activator]	-4%
CCN1CC(c2nc3ccccc3n2Cc2cccc3ccccc23)CC1=O (stereo not given)	-12%	-5%
O=C(O)CCC(=O)Nc1ccc2c(C(C(=O)O)N3CCN(c4cccc(Cl)c4)CC3)c[nH]c2c1 (stereo not given)	-12%	-16%
Cc1cc(=O)n(Cc2ccccc2)c2c1c(C)nn2-c1ccccc1	-2%	-10%
CCc1ccc(-n2nc(CO)c(C(=O)NCCc3ccccc3)n2)cc1	-18%	-14%
Cn1c(=O)c2c(nc(SCC(=O)O)n2Cc2c(F)cccc2Cl)n(C)c1=O	3%	-7%
CC(C)C(=O)NCC(c1ccc2c(c1)OCO2)N1CCN(c2ccccc2)CC1 (stereo not given)	5%	165%[activator]
CC(C)(C)OC(=O)N1CCC(c2c(C(=O)N3CCN(c4ccccn4)CC3)cnn2-c2cccc(F)c2)CC1	-13%	-3%
Cc1cccc2c(-c3ccccc3)c(-c3ccccc3)[nH]c12	0%	12%

Quoted from the listing.
`Cc1cc(=O)n(Cc2ccccc2)c2c1c(C)nn2-c1ccccc1` in 2A Renilla is entered as -10%
`O=C(Nc1cccc(C(F)(F)F)c1)c1ccc2c(c1)nnn2C1CCCC1` in 2A firefly is entered as 4%

The results go on.
SMILES	2A firefly	2A Renilla
Cc1ccc(-n2nc(C)c3c(C(=O)O)cc(C)nc32)cc1	3%	18%
Cc1cccc(NC(=O)CN(C)S(=O)(=O)c2ccc3c(c2)c(=O)n(C)c(=O)n3C)c1	-16%	-13%
O=C(COc1ccc(F)cc1)N1CCC(c2nc3ccccc3o2)CC1	14%	13%
Cc1cc(NS(C)(=O)=O)cc2sc(NC(=O)c3ccccc3)nc12	1%	43%[activator]
Cc1ccc2oc(=O)cc(CSc3nc(C)cc(C)c3C#N)c2c1	0%	10%
CCn1c(SCc2nc3cc(S(=O)(=O)N(C)C)ccc3n2CC)nnc1C1CC1	-5%	2%
COc1ccccc1N1CCN(C2C(=O)c3ccccc3N2C(C)=O)CC1 (stereo not given)	-22%	-8%
Cc1cc(=O)oc2cc(OCC(=O)Nc3nc4ccccc4[nH]3)ccc12	51%[activator]	16%
Cc1ccc(S(=O)(=O)C2(C(=O)Nc3ccc(C(C)C)cc3)CC2)cc1	164%[activator]	0%
CCOCCCNC(=O)c1ccc(NC(=O)C23CC4CC(CC(C4)C2)C3)cc1	0%	-9%[1.06 µM]
Cc1ccc(S(=O)(=O)N2CCN(CCNC(=O)COc3ccccc3)CC2)cc1	5%	18%
Cc1ccccc1C(=O)N1CCC(C(=O)NCc2coc(-c3cccs3)n2)CC1	-1%	-5%
CC(Sc1ccc2c(c1)OCCCO2)C(=O)Nc1ccc(Br)cc1 (stereo not given)	?	?
